# High-throughput results as filed in PubChem BioAssay.
# Sfp PPTase inh = Sfp phosphopantetheinyl transferase inhibition; Q9F4F7; Biochemical Sfp PPTase activity, qHTS; Potency, µM, for the others: max response, negative = inhibition, hits mostly inhibitors; actives 3.5% (n = 310,000); AID 1490; active = well fitted inhibition curve with a large enough effect; inconclusive = small, poorly fitted or top-dose-only effect, or another doubt; inactive = no such curve, though single readings can be large or run the other way;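 note: the enzyme is Sfp with the accession as filed and its product quenches rhodamine fluorescence; potency is the fitted concentration of half-maximal effect; 0% = enzyme reaction without inhibitor and -100% = no enzyme wells; top concentration of the series not given in the record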
#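 Fluorescence-quenching assay with 15 nM Sfp, 5 uM rhodamine-CoA and 12.5 uM BHQ-2-labelled ybbR peptide in pH 7.6 Hepes/MgCl2 buffer. Enzyme was pre-incubated with compound for 15 min at room temperature. Rate was taken from the 30-min fluorescence change (525/598 nm).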
# CtBP-E1A blk = inhibitors of CtBP/E1A interaction; AlphaScreen GST-E1A/His-CtBP binding, 1536-well; stronger effect = lower value; control for the full effect not named in the record; actives 0.49% (n = 340,000); activity change, % (concentration not given with the values); in the data active means activity change below about -65%; inconclusive means about -30% to -65%; inactive means above about -30%; note: % is set by controls: 0 for no effect and ±100 for the full control effect
#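 GST-E1A and His-tagged CtBP (125 nM each as 5X stock) were preincubated with pin-transferred compound for 2 h at 37 °C in the dark, then glutathione donor and nickel acceptor beads were added for 1 h before AlphaScreen reading.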
# gsp agonist = agonists of gsp mutant (McCune-Albright syndrome) | gsp mutant cells, cAMP HTRF, 30 min; control for the full effect not named in the record | Potency, µM (titrated, usually from 76.9 µM), for the others: at the top dose activation (cAMP increase), actives largely listed as activators | actives 0.13% (n = 340,000); active = well fitted activation curve with a large enough effect; inconclusive = small, poorly fitted or top-dose-only effect, or another doubt; inactive = no such curve, though single readings can be large or run the other way; cell line not stated here;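 note: phosphodiesterase inhibitor Ro 20-1724 added with compounds to block cAMP breakdown; potency is the fitted concentration of half-maximal effect; nearly all actives have a fitted effect of over 60% in size; about a fifth of the inactives were tested at one dose only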
#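 Cells in DMEM/10% FBS with G418 were pretreated with compounds in DMSO plus […] (300 uM stock) for 30 min at 37C. cAMP was measured by HTRF (cAMP-d2 plus anti-cAMP antibody-K) after 30 min at room temperature.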
# gsp antag = gsp mutant antagonism; gsp-mutant cells, cAMP HTRF, 30 min; control for the full effect not named in the record; Potency, µM (top dose mostly 76.9 µM), inactives show at the highest dose activity change, negative = inhibition, actives largely listed as inhibitors; actives 0.4% (n = 340,000); AID 624288; active = falling curve of any shape with a large fitted effect; inconclusive = falling curve, mostly with a smaller effect; inactive = flat or rising curve; cell line not stated here;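 note: intracellular cAMP measured with PDE inhibitor Ro 20-1724 present during compound exposure; potency is the fitted concentration of half-maximal effect; % is set by controls: 0 for no effect and ±100 for the full control effect; nearly all actives have a fitted effect of over 65% in size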
#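 Cells, 2000/well, grown 16–24 h in DMEM 10% FBS with 0.5 mg/ml G418, then compounds plus […] (300 uM addition stock), 30 min at 37C. cAMP read by HTRF (cAMP-d2 and anti-cAMP antibody-K in lysis buffer) after 30 min RT.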
# TRPV1 potentiator = enhances activation of the human vanilloid receptor TRPV1. TRPV1-expressing cells, Fluo-8 calcium influx, capsaicin EC20 potentiation; host cell line not named in the record; control for the full effect not named in the record. potentiation, % at 8.33 µM. actives 0.02% (n = 320,000); active means potentiation above 80%; inconclusive means 30% to 80%; inactive means below 30%; note: 0% is about no effect
# Target sequence (Q8NER1 whole entry, looked up): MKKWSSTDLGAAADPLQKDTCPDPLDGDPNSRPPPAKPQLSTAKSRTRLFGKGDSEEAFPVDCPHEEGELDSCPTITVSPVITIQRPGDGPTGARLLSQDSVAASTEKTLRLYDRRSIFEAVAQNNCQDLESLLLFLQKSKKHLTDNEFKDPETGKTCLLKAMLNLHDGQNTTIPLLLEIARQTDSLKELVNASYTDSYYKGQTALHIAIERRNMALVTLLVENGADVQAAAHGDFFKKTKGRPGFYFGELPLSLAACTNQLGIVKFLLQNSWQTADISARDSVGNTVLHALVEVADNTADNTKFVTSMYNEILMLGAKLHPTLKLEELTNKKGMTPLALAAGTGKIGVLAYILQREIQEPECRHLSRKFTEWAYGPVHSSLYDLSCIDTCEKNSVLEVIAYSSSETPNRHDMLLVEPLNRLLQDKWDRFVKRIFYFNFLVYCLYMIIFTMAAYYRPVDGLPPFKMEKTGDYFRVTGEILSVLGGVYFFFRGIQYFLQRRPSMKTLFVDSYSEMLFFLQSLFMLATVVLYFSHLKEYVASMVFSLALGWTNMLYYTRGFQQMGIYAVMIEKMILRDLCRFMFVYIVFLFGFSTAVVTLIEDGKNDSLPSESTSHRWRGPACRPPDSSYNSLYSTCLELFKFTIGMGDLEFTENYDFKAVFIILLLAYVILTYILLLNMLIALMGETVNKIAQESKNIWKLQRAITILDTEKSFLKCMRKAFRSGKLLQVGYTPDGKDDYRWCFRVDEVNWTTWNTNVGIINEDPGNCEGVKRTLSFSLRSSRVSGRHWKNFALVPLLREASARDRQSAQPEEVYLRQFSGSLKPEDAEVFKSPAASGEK
#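 Cells expressing TRPV1 were dye-loaded with Fluo-8 and read kinetically: 10 s baseline, 3 min after compound (agonist portion), then 2 min after EC20 capsaicin (allosteric enhancer portion). Calcium-bound dye fluorescence at 480/520 nm.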
# ClpP mod = qHTS Assay for Activators of ClpP; ATP-dependent Clp protease proteolytic subunit (Bacillus subtilis (strain 168)), P80244; purified B. subtilis ClpP, FRET peptide cleavage, 20 min; Potency, µM (top dose mostly 57.5 µM), for inactives: top-dose activity change, negative = active; actives 1.9% (n = 340,000); active = well fitted falling curve with a large enough effect; inconclusive = small, poorly fitted or top-dose-only effect; inactive = no such curve, though single readings can be large or run the other way; note: potency is the fitted concentration of half-maximal effect; the source files actives as falling curves though it sought activators and does not explain the sign; nearly all actives have a fitted effect of over 65% in size; many hits overshoot -100%
# Target sequence (P80244 whole entry, looked up): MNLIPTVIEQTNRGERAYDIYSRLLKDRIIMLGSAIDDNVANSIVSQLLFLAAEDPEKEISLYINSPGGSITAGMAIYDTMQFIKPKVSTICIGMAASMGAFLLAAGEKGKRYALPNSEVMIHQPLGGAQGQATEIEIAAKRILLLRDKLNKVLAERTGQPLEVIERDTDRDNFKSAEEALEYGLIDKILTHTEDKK
#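 Buffer: 100 mM Tris/HCl pH8, 100 mM KCl, 0.05% low protease BSA, 2.5% glycerol, 0.01% Tween-20. ClpP 10 microg/mL final; 20 min RT; delta FRET normalized to ADEP and DMSO controls.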
# Menin-MLL FL inh = inhibitors of human menin-MLL interaction, wild-type MLL peptide; Fluorescence polarization, fluorescein-MLL peptide displacement from menin; 290,000 tested, under 10 active; FP activity change, % at 61.4 µM; inconclusive = falling polarisation curve, or a change in total fluorescence; inactive = total fluorescence flat and polarisation flat or rising; no compound was filed as active; the % refers to the polarisation; negative = inhibition;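 note: % of control where 0% means no effect; inhibitors lower the polarisation; unlabelled MLL peptide was the positive control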
# * marks the source's active call; other numbers are inactive results; ? = inconclusive; / = not tested or not shown; & = joins results of further samples; [ ] = dose if it differs, or a comment.
# Each structure is followed by: CtBP-E1A blk, gsp antag, Sfp PPTase inh, TRPV1 potentiator, ClpP mod, Menin-MLL FL inh, gsp agonist
1. COc1ccccc1C(C)Nc1nc(-c2cccnc2)nc2ccccc12 (centres undefined)
→ ?, -9%, -23%, 7, /, 4.7, -2%[15.4 µM]
2. O=C(Nc1cccc([N+](=O)[O-])c1)c1ccc(CN2CCOCC2)cc1
→ 4, -4%, -19%, 5, -1.4%, 6.4, 15%[15.4 µM]
3. COc1ccc(CCNC(=O)CN(c2ccc(OC)c(OC)c2)S(C)(=O)=O)cc1
→ 5, 7%, 3%, -1, 1.7%, 0.2, 10%
4. Cc1ccc(NC(=O)c2ccccc2)cc1-n1cnnn1
→ 4, -3%, -22%, 1, /, ?, 24%
5. O=C(COc1ccc2ccccc2c1Br)N1CCN(c2ccccn2)CC1
→ 4, -1%, -18%, 4, -12%, -0.3, ?
6. COc1ccc(NC(=O)C[C@H]2C(=O)N(c3ccccc3)C[C@@H]2C)cc1
→ 2, /, /, /, -0.6%, /, -39%[inhibitor]
7. COc1cccc2[nH]c(=O)c(-c3ccccc3)cc12
→ 4, 10%, 8%, 10, 4.0%, -18, 35%
8. CCCCc1cc(=O)oc2cc(OCC(=O)NCc3ccccn3)ccc12
→ 7, -4%, 7%, -1, 3.9%, 0.3, -24%
9. O=C(CSc1nc(-c2ccccc2)nc2c1Cc1ccccc1O2)Nc1ccccc1
→ /, /, 15%, 10, /, 0.4, /
10. CCCN1CCC(=O)N([C@H](CO)Cc2ccccc2)CC1
→ -9, -1%, -27%, 5, 1.8%&-24%, 2.4, /

# Grouped by structure, the compounds so far containing a carbonyl joined to an NH by a bond outside any ring (6)
# Each structure is followed by: CtBP-E1A blk, gsp antag, Sfp PPTase inh, TRPV1 potentiator, ClpP mod, Menin-MLL FL inh, gsp agonist
2. O=C(Nc1cccc([N+](=O)[O-])c1)c1ccc(CN2CCOCC2)cc1
→ 4, -4%, -19%, 5, -1.4%, 6.4, 15%[15.4 µM]
3. COc1ccc(CCNC(=O)CN(c2ccc(OC)c(OC)c2)S(C)(=O)=O)cc1
→ 5, 7%, 3%, -1, 1.7%, 0.2, 10%
4. Cc1ccc(NC(=O)c2ccccc2)cc1-n1cnnn1
→ 4, -3%, -22%, 1, /, ?, 24%
6. COc1ccc(NC(=O)C[C@H]2C(=O)N(c3ccccc3)C[C@@H]2C)cc1
→ 2, /, /, /, -0.6%, /, -39%[inhibitor]
8. CCCCc1cc(=O)oc2cc(OCC(=O)NCc3ccccn3)ccc12
→ 7, -4%, 7%, -1, 3.9%, 0.3, -24%
9. O=C(CSc1nc(-c2ccccc2)nc2c1Cc1ccccc1O2)Nc1ccccc1
→ /, /, 15%, 10, /, 0.4, /

# New compounds follow.
# Each structure is followed by: CtBP-E1A blk, gsp antag, Sfp PPTase inh, TRPV1 potentiator, ClpP mod, Menin-MLL FL inh, gsp agonist
11. COC(=O)C(C)Oc1cc(OC(C)C(=O)OC)c2c(-c3ccccc3)cc(=O)oc2c1 (centres undefined)
→ 0, ?, 3%, -20, 2.7%, 2.7, -12%[15.4 µM]
12. CCCCn1c(=S)[nH]c2cc(S(=O)(=O)N3CCOCC3)ccc21
→ 1, -1%, /, /, 0.0%, /, 7%
13. Cc1cc(OCc2ccccc2)ccc1/C(O)=C1/C(=O)C(=O)N(Cc2cccnc2)C1c1ccncc1 (centres undefined)
→ 5, 6%, 17%, 8, /, 0.9, 31%[15.4 µM]
14. COCC(C)NCc1cc(Br)ccc1OC (centres undefined)
→ 2, 10%, -18%, 15, /, 1.3, -7%[15.4 µM]
15. C=C(C)CSc1nc(N)cc(=O)[nH]1
→ 0, 11%, -6%, 3, 0.7%, 5.7, -39%
16. CC(C)/C=N/Nc1nc(-c2ccc(Br)cc2)cs1
→ 19, -4%, 79µM*, 2, 1.3%, 1.8, 10%
17. O=c1ccn([C@@H]2O[C@H](CNCc3ccc(-c4cc(C(F)(F)F)ccc4Cl)o3)[C@@H](O)[C@H]2O)c(=O)[nH]1
→ -1, -2%, /, /, 1.8%, /, /
18. COc1ccccc1C1CN=NC12CCCc1ccccc1C2=O (centres undefined)
→ 5, ?, 5%, -5, 1.0%, 0.9, -11%
19. COCCNc1oc(-c2ccc(F)cc2)nc1C#N
→ -2, 3%, 14%, -23, ?, 3.1, 1%
20. CCN(Cc1ccccc1)S(=O)(=O)c1c(C(=O)N2CCCC2)c(C)n(C)c1C
→ 2, 5%, 16%, -8, 0.8%, 0.2, ?
21. COC(=O)Cn1c(CN2CCN(c3ccc(F)cc3)CC2)nc2c1c(=O)n(C)c(=O)n2C
→ -2, 0%, 17%, /, 0.4%, 1.6, 19%
22. O=S(=O)(c1cc(Cl)ccc1Cl)n1ccnc1
→ 3, 11%, 12%, 4, /, 1.3, 14%[15.4 µM]
23. CC[C@@H]1[C@H]2CCCC(=O)N3CC[C@@H](C[C@@H]1OC(=O)Nc1ccccc1)[C@@H]23
→ 4, -11%, -1%, 23, -1.6%&-1.0%, -1.4, /
24. Cc1cccc(NC(=O)CSc2nnc(C3CC3)n2CC2CCCO2)c1C (centres undefined)
→ 23, -17%, -1%, 4, -14%, 0.3, 28%[15.4 µM]
25. CN(C)c1ccc(S(=O)(=O)N2CCCCC2)cc1NC(=O)C1=NN(c2ccccc2)C(=O)CC1
→ 1, -24%, 8%, 5, 1.0%, /, ?
26. CNC(=S)N/N=C(\C)c1ccc(Cl)c(Cl)c1
→ -1, -7%, ?, -4, /, 0.7, 3%[15.4 µM]
27. O=C(c1cccc(Cl)c1)N1CCC(N2CCC(C(=O)N3CCOCC3)CC2)CC1
→ 2, 5%, -1%, -2, /, -2.4, 3%[15.4 µM]
28. Cc1nc(SCC(=O)NNC(=O)c2cccs2)[nH]c(=O)c1C
→ -3, 11%, -22%, -12, /, 0.1, -5%
29. O=C(O)CCC(=O)Nc1ccc(C(=O)OCC(=O)c2ccc(Cl)cc2)cc1
→ 1, 6%, 7%, -1, /, 1.9, 9%
30. O=[N+]([O-])c1ccc(C2OCCO2)cc1CS(=O)(=O)c1ccccc1
→ -3, -1%, 10%, -12, /, -1.4, 16%[15.4 µM]

# Full records as entered above.
# Cc1ccc(NC(=O)c2ccccc2)cc1-n1cnnn1 reads CtBP-E1A blk: 4; gsp antag: -3%; Sfp PPTase inh: -22%; TRPV1 potentiator: 1; ClpP mod: /; Menin-MLL FL inh: ?; gsp agonist: 24%
# COCCNc1oc(-c2ccc(F)cc2)nc1C#N reads CtBP-E1A blk: -2; gsp antag: 3%; Sfp PPTase inh: 14%; TRPV1 potentiator: -23; ClpP mod: ?; Menin-MLL FL inh: 3.1; gsp agonist: 1%

# Additional entries follow:
# Each structure is followed by: CtBP-E1A blk, gsp antag, Sfp PPTase inh, TRPV1 potentiator, ClpP mod, Menin-MLL FL inh, gsp agonist
31. O=C(Nc1ccccc1)C1CCN(c2nccs2)CC1
→ 1, -9%, -2%, -20, -0.5%, 2.1, 1%
32. Cc1ccc(SC(C)C(=O)NC(N)=O)c(C)c1 (centres undefined)
→ 5, 11%, 12%, -10, 0.7%, 3.8, -31%
33. CCc1ncc(CN2CCC(C(=O)Nc3ccc(-n4nc(C)cc4C)cc3)CC2)cn1
→ 20, -20%, 19%, 5, 0.1%, /, 27%
34. OCCNc1nc(Nc2cccc(O)c2)nc2ccccc12
→ ?, -1%, -17%, 15, /, 4.2, -15%[15.4 µM]
35. CC1=C(C(=O)N2CCOCC2)C(c2ccccc2F)C2=C(CC(C)(C)CC2=O)N1 (centres undefined)
→ 3, 0%, 6%, -5, 14µM*, 1.1, -8%
36. CC(Oc1ccc2ccccc2c1)C(=O)NNC(=O)Nc1ccccc1F (centres undefined)
→ -1, 3%, 4%, -2, -0.6%, 3.3, 29%
37. CCC(C)(C)C1CCC2(CC1)NC(=S)N(c1ccccc1)N2 (centres undefined)
→ /, 10%, 79µM*, 0, -2.3%, 2.6, 1%
38. CC1(C)C2CCC1(CS(=O)(=O)N1CCN(c3ccc(F)cc3)CC1)C(=O)C2 (centres undefined)
→ 2, -9%, 1%, -9, -1.3%, -1.6, -9%
39. COc1ccc(CC(=O)N2CCN(c3ccccn3)CC2)cc1OC
→ -3, -3%, 11%, 3, 22µM*, 4.2, -4%
40. COc1ccc2oc(=O)c(C(=O)N3CCN(c4ccc(F)cc4)CC3)cc2c1
→ -12, 4%, -9%, -5, 0.2%, 0.2, 17%
41. Cc1ccc(NC(=O)CCNCc2ccco2)cc1S(=O)(=O)N(C)C
→ -3, /, 9%, 13, /, 0.9, 16%[15.4 µM]
42. O=C(NCc1ccccc1Cl)C1CCCN1S(=O)(=O)c1ccc(F)cc1 (centres undefined)
→ 10, 1%, 8%, -12, 2.0%, 0.0, -18%
43. Cc1nc2c(C(=O)NCc3ccc4c(c3)OCO4)c[nH]n2c(=O)c1Cc1ccccc1F
→ -22, 28µM*, 4%, 29, 32µM*, 0.0, -54%[inhibitor]
44. COCCNC(=O)C(C)OC(=O)c1cc2sccc2n1C (centres undefined)
→ -4, 2%, 9%, -9, -1.2%, 4.4, -26%
45. Cc1ccc(OCC(=O)NCC(=O)Nc2ccc(F)cc2)c([N+](=O)[O-])n1
→ 1, 8%, -4%, 14, -3.8%, 4.2, -9%
46. NS(=O)(=O)c1ccc(NC(=O)CSc2ncccn2)cc1
→ 13, 3%, 11%, -13, /, 5.3, -24%[15.4 µM]
47. CCOC(=O)c1nn(-c2ccccc2)cc1O
→ /, 0%, 14%, -6, -12%, -0.9, -2%
48. O=C(CSc1nnc(-c2ccc(F)cc2)o1)Nc1ccc(S(=O)(=O)N2CCCCCC2)cc1
→ 6, 6%, 16%, 3, -3.3%, 3.3, 9%
49. CCc1ccc(NS(=O)(=O)c2c(C(=O)N3CCOCC3)c(C)n(C)c2C)cc1
→ -3, 18%, 18%, 1, -0.7%, -0.1, ?
